# GLA inh pH 4.5 – alpha-galactosidase A (human) inhibition, pH 4.5; activity change, negative = inhibition, % at 105 µM; 230,000 tested, under 10 active; purified enzyme, 4-MU-alpha-Gal fluorescence, pH 4.5; P06280; inconclusive = small, poorly fitted or top-dose-only inhibition, or a rising curve; inactive = flat fitted curve, though single readings scatter; no compound was filed as active;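 note: 0% = full activity with enzyme and -100% = basal without enzyme; dose as in the result columns while the protocol names 77 µM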
# miR-21 FLuc – raises the signal of a miR-21 reporter | HeLa miR-21 FLuc reporter, luciferase, 48 h | Potency, µM (titrated, usually from 38.3 µM), for the others: at the top dose reporter change, positive = more light | 340,000 tested, under 10 active | AID 2288; active = well fitted rising curve with a large enough effect; inconclusive = small, poorly fitted or top-dose-only effect; inactive = no such curve, though single readings can be large or run the other way;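 note: % of control where 0% means no effect; miR-21 action dims this reporter so a rising signal means less miR-21 action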
#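 HeLa miR-21-FLuc reporter line, endogenous miR-21; 2000 cells/well in DMEM/10% FBS; compound titration up to ~40uM final, 48 h, 37 degree Celsius; luciferase detection reagent, 15 min lysis, CCD luminescence.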
# Rango dissoc inh – prevents RanGTP from dissociating the Rango-importin beta complex. 340,000 tested, 0.071% active. Biochemical FRET Rango-importin beta, RanGTP-induced dissociation. Potency, µM (top dose mostly 46.1 µM), without a hit: top-dose activity change, negative = inhibition. O95149+P62826; active means falling FRET ratio curve, often poorly fitted, with flat reads before Ran was added; inconclusive means other falling curves, or compound fluorescence or quenching; inactive means flat or rising ratio curve;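 note: potency is the fitted concentration of half-maximal effect; % of control where 0% means no effect; nearly all actives have a fitted effect of over 45% in size; -100% = wells without RanGTP and RCC1; the record marks most hits as doubtful in a second field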
#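 Rango FRET biosensor (snurportin-1 IBB flanked by N-terminal EYFP and C-terminal CFP10) at 0.1 uM, with 0.25 uM importin beta in PBS, 1mM DTT, 0.02% Tween-20, 0.1% BSA. 0.6 uM Ran, 2mM GTP and 0.2 uM RCC1 were then added for 45 min at room temperature. Inhibition read as loss of FRET rise.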
# Rango complex inh – inhibitors of Rango-importin beta complex formation; Q14974; Rango CFP/YFP FRET sensor + importin beta, 45 min; Potency, µM (doses to about 92.2 µM), without a hit: top-dose inhibition of complex formation; 340,000 tested, 0.031% active; AID 540263; active = rising FRET ratio curve, often small or poorly fitted; inconclusive = mostly compound fluorescence or quenching in the first reads; inactive = flat curves in all reads;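 note: potency is the fitted concentration of half-maximal effect; 0% = DMSO wells and 100% = buffer wells lacking importin beta; nearly all actives have a fitted effect of over 15% in size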
# Target sequence (Q14974 whole entry, looked up): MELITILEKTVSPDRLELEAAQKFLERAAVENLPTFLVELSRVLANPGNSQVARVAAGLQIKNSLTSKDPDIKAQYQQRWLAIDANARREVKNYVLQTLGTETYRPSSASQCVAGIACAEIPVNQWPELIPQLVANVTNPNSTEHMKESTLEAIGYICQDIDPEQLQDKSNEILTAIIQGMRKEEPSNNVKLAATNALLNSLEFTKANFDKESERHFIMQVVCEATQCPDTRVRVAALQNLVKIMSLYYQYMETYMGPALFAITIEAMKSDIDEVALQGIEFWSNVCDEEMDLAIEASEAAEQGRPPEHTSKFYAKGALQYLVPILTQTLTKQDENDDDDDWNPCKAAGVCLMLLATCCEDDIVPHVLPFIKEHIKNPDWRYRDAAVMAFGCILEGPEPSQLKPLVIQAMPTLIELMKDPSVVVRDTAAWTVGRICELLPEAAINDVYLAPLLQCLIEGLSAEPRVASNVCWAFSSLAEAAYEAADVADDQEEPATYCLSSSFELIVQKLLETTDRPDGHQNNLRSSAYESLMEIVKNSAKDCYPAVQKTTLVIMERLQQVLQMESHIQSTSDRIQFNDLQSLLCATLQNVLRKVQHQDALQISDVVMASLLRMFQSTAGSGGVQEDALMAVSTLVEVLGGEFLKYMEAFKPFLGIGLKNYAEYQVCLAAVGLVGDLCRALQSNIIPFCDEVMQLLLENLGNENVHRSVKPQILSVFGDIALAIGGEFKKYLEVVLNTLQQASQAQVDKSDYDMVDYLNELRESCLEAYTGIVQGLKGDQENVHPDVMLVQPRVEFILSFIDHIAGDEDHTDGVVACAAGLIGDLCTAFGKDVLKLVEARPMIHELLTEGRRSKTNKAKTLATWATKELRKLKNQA
#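 Inhibition scored from the CFP 486 nm/YFP 530 nm FRET ratio 45 min after adding 0.125 microM importin beta to 50 nM Rango biosensor preincubated 5 min with compound (room temperature, PBS with DTT, Tween-20, BSA). No-importin wells as positive control.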
# * = called active by the depositor; ? = inconclusive; · = no result given; & = joins results of further samples; [ ] = another dose, or the depositor's remark. Not all compounds are listed, so the mix of outcomes need not match the whole.
SMILES,GLA inh pH 4.5,miR-21 FLuc,Rango dissoc inh,Rango complex inh
CC(C)(C)[C@@H]1C=C(C(=O)N2CCOCC2)O[C@H](OCc2ccc(CO)cc2)C1,7.7,5.2%,10.8%,0.2%
COC1OC(O)C(NC(=O)C(F)(F)F)CC1O (stereo unspecified),·,·,-1.7%,-4.5%
O=C(Nc1ccccc1)N1CCCC2CCCCC21 (stereo unspecified),-2.0,-40.9%,-9.2%,2.6%
CCOC(=O)C1CCCN(C(=S)Nc2ccc(Nc3ccccc3)cc2)C1 (stereo unspecified),-6.1,-5.6%,9.3%,-0.3%
COc1ccc(C(=O)Cn2c(N3CCOCC3)nc3c2c(=O)n(C)c(=O)n3C)cc1,-1.9,-0.8%,·,·
OCCOCCn1c(C2CCCN2c2nc(-c3ccc(F)cc3)cs2)nc2cc(C(F)(F)F)ccc21 (stereo unspecified),·,·,-7.0%,-0.7%
Cc1ccc(S(=O)(=O)N2CCC(C(=O)NNC(=O)c3ccccc3O)CC2)cc1,·,·,29.1%,-2.8%
COC(=O)COc1ccc(S(=O)(=O)NCc2ccncc2)cc1,-6.6,0.9%,6.6%,-0.6%
CSc1ccc(C2=CC(=O)C[C@H](c3ccc(Cl)cc3)C2)cc1,·,·,13.4%,-0.2%
Cc1ccc(C(=O)OCC(=O)NCc2ccco2)cc1,-3.5,6.3%,-6.2%,2.0%
O=C(CCCSc1nc2ccccc2[nH]1)Nc1ccccc1,9.4,-5.3%,-12.1%,?
COc1cc(NC(=O)CCN2C(=O)NC3(CCCC3)C2=O)c(OC)cc1Cl,·,·,-8.2%,-1.1%
COc1ccc(Nc2c3c(nc4ccc(C)cc24)CCC3)cc1,·,23.5%,-19.9%,-2.6%
COc1ccc(C2CC(C)(c3ccc(OC)cc3)Nc3ccccc3N2)cc1 (stereo unspecified),-16.4,-67.5%,0.0%,-0.8%
CN(C)/C=C(/C(=O)c1ccccc1Cl)S(C)(=O)=O,7.7,-3.8%,23.2%,-1.0%
CC(C)c1ccc(SCc2noc(C(=O)NCC3CCCO3)c2C(=O)O)cc1 (stereo unspecified),-13.1,1.1%,-1.0%,-0.2%
c1ccc(-c2nn3c(-c4ccccc4)nnc3s2)cc1,6.8,-16.0%,6.7%,-0.7%
Fc1ccc(-c2nnc(CSc3nnc4ccccn34)o2)cc1,-6.4,-47.0%,2.7%,-0.2%
O=C(Nc1nnc(-c2ccc(Br)cc2)o1)C1=COCCO1,·,·,-5.7%,-0.4%
CNC(=O)CSc1cn(CC(=O)N(C(C)C)C(C)C)c2ccccc12,-2.3[21.1 µM],-0.6%,-1.4%,-2.2%
COc1ccc(-n2nc(C(=O)O)c3ccccc3c2=O)c(OC)c1,-3.6,0.1%,4.9%,4.4%
C=CCn1cc(C(=O)NCCCN(CC)CC)c(=O)c2cc(S(=O)(=O)N3CCC(C)CC3)ccc21,·,-2.2%,4.5%,0.1%
CC(C)n1cc(NC(=O)C2CC(c3cccc(Br)c3)=NO2)cn1 (stereo unspecified),4.4,-7.4%,1.0%,-2.1%
Cc1cnn(C(=O)c2oc3ccccc3c2C)c1,-0.3,-5.4%,3.8%,-0.6%
COCCN1C(=O)N[C@@H](c2cccs2)C(C(C)=O)=C1C,1.8,·,3.2%,1.9%
CC1CN(C)CCC1OC(=O)c1ccccc1 (stereo unspecified),·,0.0%,-3.0%,3.6%
O=C(Nc1cccc(Cl)c1)N(Cc1nc2ccccc2c(=O)[nH]1)Cc1cccs1,0.0,?,-10.7%,0.7%
COc1ccc(NC(=O)c2sc3nc(Cc4ccccc4)cc(C(F)(F)F)c3c2N)cc1OC,?,-0.9%,?,?
CN(CC(=O)Nc1ccc(F)c(F)c1F)C(=O)C1CSC2(C)CCC(=O)N12 (stereo unspecified),·,·,-13.7%,4.6%
Cn1c(SC2CCCCC2=O)nnc1-c1ccccc1F (stereo unspecified),3.2,-21.8%,9.2%,3.3%
O=C(CCC1CCCN(C(=O)c2ccoc2)C1)NCc1ccccc1F (stereo unspecified),6.1,-4.5%,23.1%,-3.6%
Cc1ccccc1-n1ccnc1SCC(=O)NCC1CCCO1 (stereo unspecified),·,-1.4%,-15.7%,4.6%
COc1ccc(OCC(=O)Nc2nnc(C)s2)cc1,7.7,-10.8%,17.9%,-2.6%
Cc1cc(Nc2ccc(O)cc2)n2c(nc3ccccc32)c1C#N,3.2,2.6%,-8.9%,?
COc1ccc(C(=O)Nc2ccc(C(=O)NCC3CCCO3)cc2)c(OC)c1OC (stereo unspecified),·,-5.6%,-3.6%,-6.0%
O=C(NCc1ccc2c(c1)OCO2)C1CCCN(S(=O)(=O)c2cccs2)C1 (stereo unspecified),4.2,-1.3%,-2.7%,?
Cc1ccc(NC(=S)NNC(=O)c2nnn(-c3ccccc3)c2C)cc1,-9.6,-41.0%,-9.1%,4.0%
CCC(=O)c1ccc(OCc2ccccc2)c(OC)c1,1.6,-77.9%,9.5%,-0.4%
Cc1ccc2c(c1)/C(=C/c1ccc(F)cc1)C(=O)N2,·,?,13.2%,1.8%
CCOC(=O)c1c(N)sc(C(O)(C(F)(F)F)C(F)(F)F)c1-c1ccc(F)cc1,6.0,-9.3%,-5.4%,-0.1%

# Entries shown so far containing a COOH group (2):
SMILES,GLA inh pH 4.5,miR-21 FLuc,Rango dissoc inh,Rango complex inh
CC(C)c1ccc(SCc2noc(C(=O)NCC3CCCO3)c2C(=O)O)cc1 (stereo unspecified),-13.1,1.1%,-1.0%,-0.2%
COc1ccc(-n2nc(C(=O)O)c3ccccc3c2=O)c(OC)c1,-3.6,0.1%,4.9%,4.4%

# (more compounds)
SMILES,GLA inh pH 4.5,miR-21 FLuc,Rango dissoc inh,Rango complex inh
Cc1cccc(-n2cc(C#N)c(=O)[nH]c2=O)n1,2.9,-6.7%,-2.7%,-1.6%
O=C(NC1CCCCCC1)C1c2ccccc2C(=O)N1CCCN1CCOCC1 (stereo unspecified),-0.3,0.7%,1.1%,2.6%
CCCCN(C(=O)C1=COCCO1)c1c(N)n(CCC)c(=O)[nH]c1=O,·,·,11.3%,0.4%
C/C(=N/NS(=O)(=O)c1ccc(C)cc1C)c1ccc2c(c1)OCO2,·,1.3%,-11.0%,2.0%
COc1ccccc1C(=O)CSc1nccn1C,·,-41.6%,-14.7%,-1.6%
NC(=O)c1ccccc1OCC(=O)Nc1ccc2c(c1)CCC2,·,·,-2.8%,0.0%
O=C(Nc1cnc2ccccc2c1)c1cccc(-n2cnnn2)c1,1.3,-33.1%,-13.5%,-1.7%
Cc1ccc(-c2csc(NC(=O)Cc3cccs3)n2)cc1C,12.3,-34.1%,0.5%,1.2%
COc1ccc(C(=O)NCC(=O)NCC(=O)OCc2ccc(Br)cc2)cc1,11.2,-1.7%,-5.2%,0.8%
CC(=O)N1c2ccc(S(=O)(=O)NCCC(=O)NCCc3cccc(C)c3)cc2CC1C (stereo unspecified),·,9.0%,0.4%,-1.6%
COCCn1c(C)cc(C(=O)COC(=O)c2cccc(O)c2)c1C,6.5,22.9%,0.2%,2.1%
Cc1ccc(-c2csc3ncn(Cc4ccc(C(=O)O)cc4)c(=O)c23)cc1C,-19.1,-11.3%,0.0%,?
CCOC(=O)c1cccc(NC(=O)CSc2nc3ccccc3c(=O)n2CC)c1,3.5,-5.3%,-12.8%,1.2%
O=C(NC(=S)Nc1ccccc1C(=O)O)c1cncc(Br)c1,·,-1.8%,1.3%,-2.3%
O=C(Nc1ccccc1N1CCN(C(=O)c2ccccc2)CC1)c1cccc(Cl)c1,3.3,8.1%,0.3%,-0.2%
CCCCn1cnc2c(SCc3ccc(Br)cc3)nc(N)nc21,·,·,6.4%,1.5%
CN(C)C(=O)c1nnsc1Sc1ccc(Cl)cc1,-3.0,-34.3%,11.1%,5.0%
Cc1cc(C)c(S(=O)(=O)Oc2ccccc2[N+](=O)[O-])c(C)c1,·,·,2.1%,0.1%
CNC(=O)c1cc2c(=O)n3cccc(C)c3nc2n(C(C)C)c1=N,?,1.0%,?,?
COc1ccc(N=Nc2c(C)[nH][nH]c2=O)cc1,-8.7,-61.5%,9.1%,3.4%
COc1cc(/C=C/C(=O)OCC(=O)N2CCN(C(=O)c3ccco3)CC2)ccc1O,-8.3,0.2%,?,?
O=C(Nc1nc2ccccc2[nH]1)c1ccc(Cl)c([N+](=O)[O-])c1,-5.2,-43.2%,-10.8%,-0.2%
CCN(c1ccccc1)S(=O)(=O)c1cccc(C(=O)OCC(=O)c2c(N)n(C)c(=O)n(C)c2=O)c1,·,·,-21.8%,0.0%
COc1ccccc1N1CCN(C(=O)C2CCC(Cn3c(=S)[nH]c4ccccc4c3=O)CC2)CC1 (stereo unspecified),3.8,-9.4%,1.1%,-3.2%
C=CCNC(=S)N/N=C/c1ccc(C(C)(C)C)cc1,-5.0,4.1%,-4.2%,-2.3%
COc1ccc(OC)c(S(=O)(=O)NCCc2csc(-c3cccnc3)n2)c1,2.2,-5.8%,-0.2%,0.0%
COC(=O)c1ccc(CSc2nc3c(c(=O)n2-c2ccc(C)cc2)SCC3)o1,-3.5,-12.6%,-6.5%,2.9%
O=C(Nc1ccc(COc2ccccc2)cc1)Nc1cccc(C(=O)O)c1,·,-36.7%,5.3%,?
O=C(NCCc1c[nH]c2ccccc12)/C(=C\c1cccnc1)NC(=O)c1ccccc1Br,2.5,22.7%,-8.5%,-1.0%
Cn1nnnc1SCc1c(F)cccc1F,2.3,-2.6%,2.2%,-0.2%
COc1ccc(C(=O)Nc2nc3c(s2)Cc2cc(OC)ccc2-3)cc1,8.2,7.3%&-4.0%,11.4%,1.8%
Cn1c(-c2ccccn2)[n+](C)c2ccccc21,5.0,-0.6%,-1.0%,3.9%
CC(C)NC(=S)N/N=C/c1cccs1,-7.5,-7.3%,?,3.8%
Cc1cc(C)cc(OCC(=O)N/N=C/c2ccncc2)c1,6.7,1.3%,1.9%,0.9%
COc1cc(Cl)c(C)cc1NC(=O)c1cc(S(=O)(=O)N(C)C)ccc1N1CCCC1,-8.1,-6.0%,-13.4%,-0.5%
CC1CN(c2ccccc2)CCN1C(=O)c1cc(COc2c(F)cccc2F)on1 (stereo unspecified),·,-0.7%,-1.6%,1.4%
CCOc1ccccc1CNC(=O)c1ccc2c(c1)N(CC)CCS2,·,?,-9.1%,0.2%
CN(C)c1ccc(N=C/C=C2\N(C)c3ccccc3C2(C)C)cc1,-12.3,-27.1%,-13.3%,14.6%
Nc1cc(Cl)cc2c1-c1ccc(Cl)cc1C2,·,·,4.9%,-0.7%
OCC1(CCOc2ccccc2)CCN(Cc2ccc3c(c2)OCCO3)CC1,-2.0,-3.2%,0.0%,2.3%
Cc1cccn2c(=O)c(C=O)c(N3CCCCCC3)nc12,2.7,-20.1%,3.6%,2.6%
O=C(Nc1ccccc1)c1sccc1Oc1ccc([N+](=O)[O-])cc1F,-1.1,2.2%,-6.3%,?
CC1CN(Cc2cn(C)nc2-c2ccc(Oc3ccccc3)cc2)CCN1C (stereo unspecified),8.4,-8.1%,6.0%,4.1%
CCc1nc2ccccc2c(C(=O)OCC(=O)NC2CC2)c1C,·,·,-18.3%,?
Cn1c(N)cc(-c2ccc(F)cc2)c(C#N)c1=O,-2.8,-2.5%,0.4%,-1.1%
CCOC(=O)c1sc2nc(C)nc(NCc3ccccc3)c2c1C,·,-2.7%,-3.7%,3.5%

# In the list so far, 4 contain a CF3 group.
SMILES,GLA inh pH 4.5,miR-21 FLuc,Rango dissoc inh,Rango complex inh
COC1OC(O)C(NC(=O)C(F)(F)F)CC1O (stereo unspecified),·,·,-1.7%,-4.5%
OCCOCCn1c(C2CCCN2c2nc(-c3ccc(F)cc3)cs2)nc2cc(C(F)(F)F)ccc21 (stereo unspecified),·,·,-7.0%,-0.7%
COc1ccc(NC(=O)c2sc3nc(Cc4ccccc4)cc(C(F)(F)F)c3c2N)cc1OC,?,-0.9%,?,?
CCOC(=O)c1c(N)sc(C(O)(C(F)(F)F)C(F)(F)F)c1-c1ccc(F)cc1,6.0,-9.3%,-5.4%,-0.1%
